RGS16-Gao = RGS16-Galphao interaction regulator (human); O15492+P09471; bead-based flow cytometry RGS16-Galphao binding, fluorescence; actives lie on both sides; binding response (% of control), % at 10 µM; actives 0.38% (n = 220,000);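 active = below 25% or above 175%, edge rows of some plates excepted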;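 also: Galphao activated by GDP with aluminum fluoride before binding; 100% = wells without compound and 0% = beads without RGS; some results beyond the cut were filed as inactive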
INS promoter inh = TRM-6 insulin promoter activity inhibition | TRM-6 cells (human fetal islet line), insulin promoter-eGFP reporter, imaging; reporter expression induced with tamoxifen | inhibition, % at 2 µM | actives 0.9% (n = 130,000) | AID 1273;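 active = inhibition above the mean plus 3 SD, with well images judged a real hit on visual review, cut at about 60% in these data, passing the limit was not always enough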
PKD1 inh = inhibitors of human PKD1 kinase. PKD1 kinase fluorescence polarization assay. actives 0.056% (n = 200,000). inhibition, %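 (about 10 µM by stock and volumes)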;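 active = inhibition of 50% or more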;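 also: controls were vehicle for no effect and a reference inhibitor for full effect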
Target sequence (Q15139 whole entry, looked up): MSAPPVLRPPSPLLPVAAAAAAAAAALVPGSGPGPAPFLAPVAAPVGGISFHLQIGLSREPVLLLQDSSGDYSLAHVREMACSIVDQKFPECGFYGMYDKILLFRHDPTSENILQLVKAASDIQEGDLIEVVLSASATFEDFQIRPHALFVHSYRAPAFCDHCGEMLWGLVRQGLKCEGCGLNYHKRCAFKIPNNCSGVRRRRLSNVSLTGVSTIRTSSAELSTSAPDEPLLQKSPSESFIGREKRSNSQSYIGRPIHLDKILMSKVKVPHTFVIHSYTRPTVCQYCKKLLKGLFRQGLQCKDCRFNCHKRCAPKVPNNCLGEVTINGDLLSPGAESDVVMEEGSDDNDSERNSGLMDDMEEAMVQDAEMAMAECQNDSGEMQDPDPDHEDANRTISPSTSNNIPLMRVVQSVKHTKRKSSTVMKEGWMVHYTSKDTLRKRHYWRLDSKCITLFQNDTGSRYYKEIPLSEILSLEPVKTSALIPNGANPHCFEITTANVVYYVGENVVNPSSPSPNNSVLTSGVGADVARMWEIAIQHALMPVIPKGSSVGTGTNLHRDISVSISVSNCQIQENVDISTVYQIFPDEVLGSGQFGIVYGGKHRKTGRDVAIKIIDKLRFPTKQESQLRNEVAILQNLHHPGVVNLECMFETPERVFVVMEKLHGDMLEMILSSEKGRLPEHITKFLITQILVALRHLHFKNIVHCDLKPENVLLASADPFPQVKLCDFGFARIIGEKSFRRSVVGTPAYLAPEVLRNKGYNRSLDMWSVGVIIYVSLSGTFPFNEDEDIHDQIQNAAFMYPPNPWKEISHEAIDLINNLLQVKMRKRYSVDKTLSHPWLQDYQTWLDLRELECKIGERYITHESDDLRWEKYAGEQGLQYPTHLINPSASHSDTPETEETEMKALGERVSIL
GALR2 ag = agonists of human galanin receptor 2 (GALR2) | O43603 | GALR2-expressing cells, agonist activation read-out | activation, %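 (tested at 5 µM)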 | actives 0.48% (n = 140,000);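 active = above mean plus 3 SD of all compounds, about 5% in these data, not always enough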;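 also: 0% = vehicle buffer wells and 100% = reference agonist at full effect; tested in CHO reporter cells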
HSV augment = increases HSV replication in cells; actives 0.005% (n = 220,000); HSV replication augmentation in cells, fold increase; maximum fold increase;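 active = peak rise of 1.5-fold or more in the series; tested in PC3 cells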;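 also: first round at 10 µM; read as green reporter fluorescence; hits show the peak of a series up to 25 µM; 1 = signal of infected wells without compound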
INS promoter inh cell count = recorded beside INS promoter inh, whose call it bears; normalized cell count, %; measured here: cell count, toxicity; reference of the scale not given here;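 cells exposed to compound for 48 h; stained nuclei by imaging scaled within each plate; lower means fewer cells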
HSV augment primary fold = also measured in HSV augment; calls as there; fold increase; compound at 10 µM; measured here: primary screen fold increase 10 uM; tested in PC3 cells;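 GFP signal in the first replicate; 1 = infected wells without compound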
Starred values were filed as active, the others as inactive; i = inactive; . = not tested or not shown.

SMILES	RGS16-Gao	INS promoter inh	INS promoter inh cell count	PKD1 inh	GALR2 ag	HSV augment	HSV augment primary fold
CC(C#N)Sc1nc2ccccc2c(=O)n1-c1ccccc1 (configuration not stated)	99	.	.	-5	0.0	i	0.79
CC1CCCc2sc3nc(N4CCN(CCO)CC4)n4ncnc4c3c21 (configuration not stated)	102	.	.	-1	1.4	i	0.78
CC(C)=C(NC(=O)c1ccccc1)C(=O)N1CCOCC1	96	.	.	-5	-1.5	i	1
CC(C)/C=N/Nc1nc2c(c(=O)n(C)c(=O)n2C)n1C	108	.	.	.	.	i	0.84
CCCCOc1ccc(C(=O)N/C(=C\c2cccc([N+](=O)[O-])c2)C(=O)OCc2ccco2)cc1	104	.	.	0	-1.1	i	0.94
CS(=O)(=O)N1CCC(C(=O)N2CCN(C(c3ccccc3)c3ccccc3)CC2)CC1	101	.	.	-1	.	i	1.1
O=C(NC(=S)Nc1ccc(S(=O)(=O)Nc2nccs2)cc1)c1ccccc1F	89	-5	110	-1	.	i	1
Cc1cccc(-n2c(C)cc(/C=N/NC(=O)c3cccc([N+](=O)[O-])c3C)c2C)c1	103	-3	100	3	-1.0	i	0.95
COc1ccc(-n2ccc(-c3nn(-c4cccc(C(F)(F)F)c4)ccc3=O)n2)cc1	94	0	160	-9	-1.9	i	0.91
OC1(C(F)(F)F)CC(O)(C(F)(F)F)n2nc(-c3ccccc3)cc2N1 (configuration not stated)	95	-21	188	7	-1.3	i	0.93
Cc1cc(C(=O)CN2C(=O)NC3(CCCC3)C2=O)c(C)n1-c1ccc2c(c1)OCO2	98	.	.	-12	-1.0	i	1.1
COC(=O)CN(C#N)c1nc(C)cc(C)n1	99	-2	137	-1	-1.1	i	1
O=C(COC(=O)c1cccnc1Nc1cccc(C(F)(F)F)c1)NCc1ccc2c(c1)OCO2	104	-16	92	5	-1.7	i	0.89
CCOC(=O)N1CCN(CC(=O)Nc2ccc(F)cc2)CC1	103	-11	70	0	.	i	0.99
CC(=O)Nc1ccc(N2S(=O)(=O)c3ccccc3S2(=O)=O)cc1	99	.	.	-6	-0.5	i	0.97
COc1ccc(-n2c(Cc3cccn3C)nnc2SCC(=O)NCc2ccco2)cc1	93	.	.	-17	0.1	i	1.2
O=C(CSC(=S)N1CCOCC1)Nc1ncc2c(n1)CC(c1ccco1)CC2=O (configuration not stated)	101	.	.	.	.	i	0.56
CCOC(=O)CCP(=O)(O)C(C)(O)c1ccccc1 (configuration not stated)	101	-4	95	-4	0.5	i	0.99
CNC(=O)c1nc[nH]c1C(=O)NC	102	17	149	-5	-0.3	i	0.99
O=C(CC(=O)NC1CCCCC1)N/N=C/c1cccc2ccccc12	104	-6	124	-2	-0.7	i	0.95
O=C(COc1ccc(Cl)cc1)NNC(=O)c1ccccn1	102	4	135	-6	-1.6	.	.
O=C(Cc1c(F)cccc1Cl)Nc1ccncc1	103	-3	182	-12	-2.2	i	0.99
c1ccc(COC(CN2CCCCCC2)CN2CCCCCC2)cc1	96	.	.	.	.	i	0.89
COc1ccc(C)cc1NC(=S)N1CCN(c2ncccn2)CC1	96	-21	169	-2	.	i	0.98
Cc1ccc2c(c1)c1c3n2CCN(C(=O)CN2CCN(C)CC2)C3CCC1 (configuration not stated)	105	.	.	-4	-1.6	i	0.96
CC(=O)N(CCN1CCOCC1)Cc1cc2cc3c(cc2nc1Cl)OCO3	104	0	117	10	.	i	0.94
COC(=O)[C@@]1(Cc2ccc(OC)cc2)[C@H]2c3cc(C(=O)N4CCCC4)n(Cc4ccc(C)o4)c3C[C@H]2CN1C(=O)c1ccccc1	105	50	75	-1	-1.3	i	0.78
O=C(CNC(=O)C1CCCCC1)NCCCO	147	.	.	-12	-0.9	i	0.96
O=C(NN=C1CCCCCCC1)c1ccc2ccccc2n1	100	20	73	-7	.	i	0.98
NNc1nc(Nc2ccccc2)nc(Nc2ccccc2)n1	113	-75	118	-1	.	i	0.94
CCC(C)n1ncn(-c2ccc(N3CCN(c4ccc(O)cc4)CC3)cc2)c1=O (configuration not stated)	101	38	95	-4	-1.3	i	0.93
CC(=O)Nc1ccc(S(=O)(=O)N(C)CC(=O)OCC(=O)N2CCc3ccccc32)cc1	103	-64	101	-5	-2.9	.	.
Cc1cc(C)nc(NNC2=CC(=O)CC(C)(C)C2)n1	102	42	174	3	.	i	0.88
CC(C)(C)C1CCc2onc(C(=O)NC3CCCC3)c2C1 (configuration not stated)	93	.	.	2	-4.2	i	0.95
O=C(NCCN1CCOCC1)c1cc2c(=O)n3ccccc3nc2n1Cc1ccccc1	100	.	.	-13	1.3	i	0.92
FC(F)(F)c1cccc(Cc2noc(CN3CCSCC3)n2)c1	100	.	.	8	.	i	0.94
O=C(CCN1C(=O)c2ccccc2C1=O)NCCN1CCOCC1	200	5	83	-2	-1.5	i	0.95
CCOc1ccc(N2C(=O)CC(Sc3nc(C)cc(C)c3C#N)C2=O)cc1 (configuration not stated)	94	.	.	-1	-2.6	i	0.88
CCOc1ccccc1Nc1ccnc2cc(Cl)ccc12	106	.	.	11	.	i	0.97
COc1cc2c(cc1OC)CN(C(=O)CSc1nc(C)cc(C)c1C#N)CC2	99	50	136	-2	-1.2	i	0.95
COc1ccc(C2(CNC(=O)/C=C/c3ccco3)CCCC2)cc1OC	92	.	.	11	0.2	i	0.92
Cc1sc2nc(CSCC(=O)Nc3ccc(N4CCOCC4)cc3)[nH]c(=O)c2c1C	96	.	.	.	.	i	0.97
CCOC(=O)c1c(-c2ccccc2)oc2ccc(O)c(CN3CCCC3)c12	98	-35	36	0	-0.7	i	0.57
CC(C)(Cc1ccc(O)cc1)NC(=O)CC(=O)N=Nc1c(O)[nH]c2ccc(Br)cc12	97	.	.	2	.	i	0.93
O=C(CCn1c(=O)[nH]c2ccsc2c1=O)NCc1ccc(F)cc1	108	0	162	3	.	i	1
O=C(c1ccccc1)N1CCCc2ccccc21	94	57	98	0	-1.4	.	.
Cc1ccc(S(=O)(=O)Nc2ccc3c(c2)OCCO3)cc1C	102	.	.	-9	.	i	1
NC(=O)CC(NC(=O)Cc1ccc(Br)cc1)c1ccc(NCc2ccc(F)cc2)c([N+](=O)[O-])c1 (configuration not stated)	103	.	.	.	.	i	0.84
N/C(=N/OC(=O)c1ccccc1F)c1nonc1N	98	.	.	-1	.	i	0.97
Cc1ccc(-c2nnc(SCC(=O)CC(=O)Nc3ccccc3)n2-c2ccccc2)cc1	98	30	116	2	-0.9	i	0.89

(continued)
SMILES	RGS16-Gao	INS promoter inh	INS promoter inh cell count	PKD1 inh	GALR2 ag	HSV augment	HSV augment primary fold
CCC(C)[C@H](NC(=O)NCc1cccc(OC)c1)C(=O)OC (some centres not stated)	97	4	92	-13	-1.4	i	1
Cc1ccc(C(=O)CSC2=C(C#N)C(c3ccco3)CC(=O)N2)c(C)c1 (configuration not stated)	107	.	.	-2	1.0	i	1.1
CCCCC1=CC2=C(c3ccco3)C(=O)C(C)(OC(=O)c3ccc(OC)cc3)C(=O)C2=CN1CCCCO (configuration not stated)	100	.	.	.	.	i	0.95
O=C(/C=C/c1ccccc1Cl)Nc1ccncc1	101	-57	138	-7	-2.0	i	0.93
CCS(=O)(=O)N1Cc2ccccc2CC1C(=O)NC(C)C12CC3CC(CC(C3)C1)C2 (configuration not stated)	100	-29	127	-7	-0.3	i	0.93
CCOc1ccc(C2NC(=O)NC(C)=C2[N+](=O)[O-])cc1OC (configuration not stated)	99	.	.	.	.	i	0.77
COc1ccccc1/C=c1\sc2nc(-c3ccco3)nn2c1=O	.	7	81	3	-2.4	i	0.92
Cc1cc(S(=O)(=O)N(Cc2cccs2)Cc2ccccc2F)ccc1-n1cnnn1	104	8	85	5	-1.8	i	0.77
CCOC(=O)C1(CC2CCCCO2)CCN(S(=O)(=O)c2ccsc2)CC1 (configuration not stated)	114	.	.	-8	.	i	0.91
Cc1nonc1N1CCN(Cc2cn[nH]c2-c2ccc3c(c2)OCO3)CC1	93	.	.	-3	.	i	1.1
CCOC(=O)c1c(C)nc(C)c(C(=O)OCC)c1-c1ccccc1	105	3	72	-9	-1.9	i	0.95
CC(NC(=O)CN(c1cccc(C(F)(F)F)c1)S(=O)(=O)c1ccc(Cl)c([N+](=O)[O-])c1)c1ccccc1 (configuration not stated)	103	-20	107	15	-0.3	i	0.63
Cc1ccccc1C(=O)NNC(=S)NC(=O)c1ccc(Cl)cc1Cl	103	18	119	-10	-1.0	i	1.2
CCCCC1=CC2=C(c3ccco3)C(=O)C(C)(OC(=O)c3ccc(OC)cc3)C(=O)C2=CN1C1CC1 (configuration not stated)	102	.	.	.	.	i	1
O=C(c1ccc(N2CCOCC2)cc1)c1cccs1	97	-7	205	7	-4.0	i	0.86
O=C(O)c1cc(-c2cccc(Cl)c2)nc2nc(N3CCCCC3)sc12	10	17	123	-1	-1.8	i	1
Cc1ccc(CSc2ccc(-c3cccs3)nn2)cc1	100	.	.	-6	-0.9	i	0.96
COC(=O)C1=C(C)N=C2SC(C)C(=O)N2C1c1ccc(C(=O)OC)cc1 (configuration not stated)	106	0	103	5	2.2	i	0.94
CCCc1c(O)nc(SCCN(CC)CC)n(C(=O)c2ccccc2)c1=O	109	.	.	8	-1.9	i	0.96
CCOc1ccc(C2Nc3ccccc3C(CC)(CC)O2)cc1 (configuration not stated)	100	.	.	6	.	i	0.94

Retrieved one by one from the list above, 2 records:
SMILES	RGS16-Gao	INS promoter inh	INS promoter inh cell count	PKD1 inh	GALR2 ag	HSV augment	HSV augment primary fold
Cc1cc(C(=O)CN2C(=O)NC3(CCCC3)C2=O)c(C)n1-c1ccc2c(c1)OCO2	98	.	.	-12	-1.0	i	1.1
OC1(C(F)(F)F)CC(O)(C(F)(F)F)n2nc(-c3ccccc3)cc2N1 (configuration not stated)	95	-21	188	7	-1.3	i	0.93

Carrying on.
SMILES	RGS16-Gao	INS promoter inh	INS promoter inh cell count	PKD1 inh	GALR2 ag	HSV augment	HSV augment primary fold
Cc1[nH]nc(NCCO)c1[N+](=O)[O-]	154	0	116	1	.	i	0.93
Cc1cccc(-n2c(N)c(-c3nc4ccccc4n3C)c3nc4ccccc4nc32)c1	110	-55	75	6	0.4	i	1.2
O=C1CCN(S(=O)(=O)c2cccs2)c2ccc(C(F)(F)F)cc2N1	102	.	.	3	.	i	0.98
NC(Cc1ccccc1)C(O)(c1ccccc1)c1ccccc1 (configuration not stated)	103	.	.	-6	.	i	0.83
COc1cc2c(cc1OC)C(C)N(C(=O)C1COc3ccccc3O1)CC2 (configuration not stated)	99	-14	112	7	-0.4	i	0.79
COC(=O)[C@@H](NC(=O)Nc1cc(Cl)ccc1C)C(C)C	74	21	61	-10	0.1	i	0.92
COc1cc(C(=S)N2CCOCC2)ccc1OC(=O)c1cc([N+](=O)[O-])c(C)c([N+](=O)[O-])c1	6.2*	-22	85	-13	-3.1	i	0.99
CC(C)(C)n1nc2c(c1NC(=O)c1cccc(C(F)(F)F)c1)CS(=O)C2 (configuration not stated)	102	20	130	1	-3.1	i	1

Structures listed so far that have an aryl methoxy group, in the order listed:
SMILES	RGS16-Gao	INS promoter inh	INS promoter inh cell count	PKD1 inh	GALR2 ag	HSV augment	HSV augment primary fold
COc1ccc(-n2ccc(-c3nn(-c4cccc(C(F)(F)F)c4)ccc3=O)n2)cc1	94	0	160	-9	-1.9	i	0.91
COc1ccc(-n2c(Cc3cccn3C)nnc2SCC(=O)NCc2ccco2)cc1	93	.	.	-17	0.1	i	1.2
COc1ccc(C)cc1NC(=S)N1CCN(c2ncccn2)CC1	96	-21	169	-2	.	i	0.98
COC(=O)[C@@]1(Cc2ccc(OC)cc2)[C@H]2c3cc(C(=O)N4CCCC4)n(Cc4ccc(C)o4)c3C[C@H]2CN1C(=O)c1ccccc1	105	50	75	-1	-1.3	i	0.78
COc1cc2c(cc1OC)CN(C(=O)CSc1nc(C)cc(C)c1C#N)CC2	99	50	136	-2	-1.2	i	0.95
COc1ccc(C2(CNC(=O)/C=C/c3ccco3)CCCC2)cc1OC	92	.	.	11	0.2	i	0.92
CCC(C)[C@H](NC(=O)NCc1cccc(OC)c1)C(=O)OC (some centres not stated)	97	4	92	-13	-1.4	i	1
CCCCC1=CC2=C(c3ccco3)C(=O)C(C)(OC(=O)c3ccc(OC)cc3)C(=O)C2=CN1CCCCO (configuration not stated)	100	.	.	.	.	i	0.95
CCOc1ccc(C2NC(=O)NC(C)=C2[N+](=O)[O-])cc1OC (configuration not stated)	99	.	.	.	.	i	0.77
COc1ccccc1/C=c1\sc2nc(-c3ccco3)nn2c1=O	.	7	81	3	-2.4	i	0.92
CCCCC1=CC2=C(c3ccco3)C(=O)C(C)(OC(=O)c3ccc(OC)cc3)C(=O)C2=CN1C1CC1 (configuration not stated)	102	.	.	.	.	i	1
COc1cc2c(cc1OC)C(C)N(C(=O)C1COc3ccccc3O1)CC2 (configuration not stated)	99	-14	112	7	-0.4	i	0.79
COc1cc(C(=S)N2CCOCC2)ccc1OC(=O)c1cc([N+](=O)[O-])c(C)c([N+](=O)[O-])c1	6.2*	-22	85	-13	-3.1	i	0.99

Screens deposited in PubChem by several laboratories.
